NPYLR7 agonist – activates Aedes aegypti NPYLR7 receptor | HEK293T NPYLR7/Galpha15, GCaMP6s calcium fluorescence | activation, % at 10 µM | actives 0.15% (n = 270,000) | AID 1259423; in the data active means activation above about 40%;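 further: 0% = vehicle and 100% = reference agonist at the receptor; some compounds past the cut are filed as inactive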
NPYLR7 agonist max-min – further read-out of NPYLR7 agonist, marked with its call; activation, %; measured here: Max-Min RFU normalised activation; some inactives read as strong as hits;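 span of the calcium signal over five minutes; 0% = vehicle and 100% = native peptide agonist; compound fluorescence can raise it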
Starred values were filed as active, the others as inactive; & = joins results of further samples.

#	SMILES	NPYLR7 agonist max-min	NPYLR7 agonist
1	CC(C)(C)n1nc(-c2ccccc2)c2c1N(CC(=O)NCc1cccnc1)C(=O)CSC2c1ccc(F)cc1F (configuration not stated)	9	-10
2	Cn1c2c(c3ccccc31)CCNCC2	-16	-12
3	COC1=CC23CCCN2CCc2cc4c(cc2C3C1O)OCO4 (configuration not stated)	-15	-8
4	O=c1cccc2n1C[C@H]1C[C@@H]2CN(C[C@H]2CN3CC[C@H]2C[C@@H]3CNC(=S)NCc2ccco2)C1	-18	-8
5	CN1CCc2cccc(Cl)c2CC1	0	0
6	Cc1ccc2c(c1)C1CN(C)CCC1N2C(=O)NCC1CCCC1 (configuration not stated)	15	13
7	CN(Cc1ccccc1)C1CCCN(C(=O)Cc2cnc3ncnn3c2)C1 (configuration not stated)	2	5
8	Cn1nc(N)c2c1N=P(N1CCOCC1)(N1CCOCC1)N=C2c1ccccc1	1	0
9	Cn1nc(-c2ccco2)cc1[C@H]1CN2CC[C@H]1C[C@@H]2COC(=O)Nc1cccc(C(F)(F)F)c1	-14	-6
10	FC(F)(F)c1ccc2sc(C3CCNCC3)nc2c1	2	4
11	CN(c1ccccc1)S(=O)(=O)c1ccc(Cn2nc(C(=O)N3CCN(CCO)CC3)c3ccccc32)cc1	3	-2
12	O=C(O)CCCO	-2	0
13	Cc1ccc(/C=C2\C(=O)NC(=O)N(c3ccc(Cl)cc3)C2=O)o1	10	13
14	O=C(NCc1ccco1)c1nn(Cc2cccc(Oc3ccccc3)c2)c2ccccc12	22	-4
15	CC(C)(CC(=O)O)CC(=O)N1C[C@@H]2C[C@H](C1)c1c(-c3cccs3)ccc(=O)n1C2	-7	-6

New compounds follow.
#	SMILES	NPYLR7 agonist max-min	NPYLR7 agonist
16	O=C(Cc1ccccc1)N1CCN(C(C(=O)N2CCc3ccccc3C2)C2CCCC2)CC1 (configuration not stated)	-3	-3
17	COCCNC(C)c1nc2ccccc2c(=O)n1-c1ccc(Cl)cc1C (configuration not stated)	7	-2
18	C=C(C)[C@H]1CN[C@H](C(=O)O)[C@H]1CC(=O)O	-14	-1
19	O=C(Cc1ccc(F)cc1)N1CCN(CC(OCc2ccc(C(F)(F)F)cc2)c2ccc(Cl)cc2)CC1 (configuration not stated)	2	7
20	O=C(c1ccccc1)N1C[C@@H]2C[C@H](C1)c1ccc(C3CCCCC3)c(=O)n1C2	-18	-13
21	N#Cc1c(O)c(Cl)c(Cl)c(C#N)c1Cl	4	4
22	CN1CCc2[nH]c(=S)c(C#N)c(-c3ccsc3)c2C1	3	8
23	O=S(=O)(c1cc(Cl)cc(Cl)c1)N1CCN(CCOC(c2ccc(Cl)cc2)c2ccc(Cl)cc2)CC1	8	17
24	CN(Cc1ccc(Cl)nc1)C(=O)Nc1ccccc1	-3	-1
25	CCN(CC)CCN(C(=O)Cc1ccccc1)c1nc2c(F)cc(F)cc2s1	-4	-3
26	C1=C(c2ccccc2)CCN(Cc2nc(-c3cccnc3)no2)C1	5	5
27	O=C(NCc1ccncc1)C(C1CCCC1)N1CCN(C(=O)COc2ccc(Cl)cc2)CC1 (configuration not stated)	1	-5
28	O=S(=O)(c1cc(Cl)cc(Cl)c1)N1CCN(CCOC(c2ccccc2)c2ccc(F)c(F)c2)CC1 (configuration not stated)	1	5
29	Cc1ccc2c(CC(=O)N3CCCN(CC(=O)NC(C)(C)C)CC3)coc2c1C	7	8
30	O=c1ccc2c(O)c3ccoc3cc2o1	-18	-9

(listing goes on)
#	SMILES	NPYLR7 agonist max-min	NPYLR7 agonist
31	CCN(CC)C(=O)N[C@@H]1C[C@@H]2c3cccc4[nH]cc(c34)C[C@H]2N(C)C1	-40	4
32	COc1cc2c(cc1OC)C(C)NCC2 (configuration not stated)	-1&-9	5&-4
33	O=C(O)C1C2C(=O)OCC12Br (configuration not stated)	-18	-12
34	CCc1cccc(CC)c1NC(=O)CN1CC=C(c2cccc(OC)c2)CC1	10	10
35	N#Cc1ccc(NC(=O)NCc2cccs2)cc1Cl	6	9
36	CCc1ccc(C(=O)N2CCN(CCOC(c3ccccc3)c3ccccc3)CC2)cc1	-12	-12
37	N#CCCN1CCC(c2c[nH]c3ccccc23)CC1	1	1
38	CCOC(=O)c1ccc(-c2ccc(C=C3C(=O)NC(=S)NC3=O)o2)cc1	0	-1
39	CCOC(=O)C(O)(CC#N)c1nccn1C (configuration not stated)	-4	5
40	COc1nc(C)cc(C)c1CNc1nc(-c2cccnc2)nc2c1cnn2C	-3	-1
41	CCC1(C)C2SCC(=O)N2CCN1CC(=O)NN (configuration not stated)	-5	0
42	CN(C(=O)Cc1ccc(Cl)c(Cl)c1)C(CN1CCCC1)c1cccc(OCC(=O)O)c1 (configuration not stated)	-26	4
43	CSc1ccc(C2N(c3cc(C)on3)C(=O)C3CCCN32)cc1 (configuration not stated)	1	5
44	C=Cn1ccnc1P(=S)(c1nccn1C=C)C1CCCCC1	-2	-1
45	CN1C(=O)C(=Cc2cccs2)C(=O)N(C)C1=O	0	3

Ordered by length of the SMILES (ascending): three of the compounds above
#	SMILES	NPYLR7 agonist max-min	NPYLR7 agonist
32	COc1cc2c(cc1OC)C(C)NCC2 (configuration not stated)	-1&-9	5&-4
40	COc1nc(C)cc(C)c1CNc1nc(-c2cccnc2)nc2c1cnn2C	-3	-1
42	CN(C(=O)Cc1ccc(Cl)c(Cl)c1)C(CN1CCCC1)c1cccc(OCC(=O)O)c1 (configuration not stated)	-26	4

Other results.
#	SMILES	NPYLR7 agonist max-min	NPYLR7 agonist
46	CN(c1ccccc1)S(=O)(=O)c1ccc(Cn2nc(C(=O)NCC3CCCO3)c3ccccc32)cc1 (configuration not stated)	17	22
47	CC(C)(C)c1ccc(O)cc1	-31	-27
48	COc1ccc(N=Nc2c(O)[nH]c(=S)[nH]c2=O)cc1	-17	-6
49	CC(C)CCc1noc(CN2CCCC(C(=O)c3ccccn3)C2)n1 (configuration not stated)	-1	3
50	O=C(NCCCN1CCCC1=O)C(C1CCCC1)N1CCN(C(=O)Cc2ccccc2)CC1 (configuration not stated)	-1	-4
51	CS(=O)(=O)c1ccc(S(=O)(=O)N2CCN(CCOC(c3ccccc3)c3ccc(F)c(F)c3)CC2)cc1 (configuration not stated)	23	26
52	CN1[C@@H]2CC(=O)C[C@H]1[C@H](O)C2	-20	-14
53	Cc1oc(-c2ccsc2)nc1CC(=O)N1CCN(C)CC1C (configuration not stated)	16	17
54	O=C(c1nc(=O)[nH]c2ccccc12)N1CCCC2(CCNC2)C1 (configuration not stated)	-6	-5
55	C=CCN1C(=O)C2(c3ccccc31)c1c(cc(C)[nH]c1=O)OC(=N)C2C(=O)OC (configuration not stated)	-4	1
56	CCC1(CC)C(=N)N(C)C(=O)NC1=O	-4	0
57	Clc1cncc(NCC2CN(C3CC3)CCO2)n1 (configuration not stated)	3	8
58	COCCCNC(=O)CN1C(=O)CSC(c2ccccc2OC)c2c(C(C)(C)C)nn(-c3cccc(C)c3C)c21 (configuration not stated)	-1	-4
59	Cc1cccn2c(=O)c3cc(C(=O)N4CCC5(CC4)OCCO5)n(C)c3nc12	-2	0
60	COc1ccc(CC(=O)N2CCN(Cc3cccc(-c4noc(-c5cccc(C(F)(F)F)c5)n4)c3)CC2)cc1	14	25

Part of the list above, with values under each structure:
Screens in order: NPYLR7 agonist max-min, NPYLR7 agonist
#37 N#CCCN1CCC(c2c[nH]c3ccccc23)CC1
 : 1, 1
#38 CCOC(=O)c1ccc(-c2ccc(C=C3C(=O)NC(=S)NC3=O)o2)cc1
 : 0, -1
#39 CCOC(=O)C(O)(CC#N)c1nccn1C (configuration not stated)
 : -4, 5
#40 COc1nc(C)cc(C)c1CNc1nc(-c2cccnc2)nc2c1cnn2C
 : -3, -1
#41 CCC1(C)C2SCC(=O)N2CCN1CC(=O)NN (configuration not stated)
 : -5, 0
#42 CN(C(=O)Cc1ccc(Cl)c(Cl)c1)C(CN1CCCC1)c1cccc(OCC(=O)O)c1 (configuration not stated)
 : -26, 4
#43 CSc1ccc(C2N(c3cc(C)on3)C(=O)C3CCCN32)cc1 (configuration not stated)
 : 1, 5
#44 C=Cn1ccnc1P(=S)(c1nccn1C=C)C1CCCCC1
 : -2, -1
#45 CN1C(=O)C(=Cc2cccs2)C(=O)N(C)C1=O
 : 0, 3
#46 CN(c1ccccc1)S(=O)(=O)c1ccc(Cn2nc(C(=O)NCC3CCCO3)c3ccccc32)cc1 (configuration not stated)
 : 17, 22
#47 CC(C)(C)c1ccc(O)cc1
 : -31, -27
#48 COc1ccc(N=Nc2c(O)[nH]c(=S)[nH]c2=O)cc1
 : -17, -6
#49 CC(C)CCc1noc(CN2CCCC(C(=O)c3ccccn3)C2)n1 (configuration not stated)
 : -1, 3
#50 O=C(NCCCN1CCCC1=O)C(C1CCCC1)N1CCN(C(=O)Cc2ccccc2)CC1 (configuration not stated)
 : -1, -4
#51 CS(=O)(=O)c1ccc(S(=O)(=O)N2CCN(CCOC(c3ccccc3)c3ccc(F)c(F)c3)CC2)cc1 (configuration not stated)
 : 23, 26
#52 CN1[C@@H]2CC(=O)C[C@H]1[C@H](O)C2
 : -20, -14
#53 Cc1oc(-c2ccsc2)nc1CC(=O)N1CCN(C)CC1C (configuration not stated)
 : 16, 17
#54 O=C(c1nc(=O)[nH]c2ccccc12)N1CCCC2(CCNC2)C1 (configuration not stated)
 : -6, -5
#55 C=CCN1C(=O)C2(c3ccccc31)c1c(cc(C)[nH]c1=O)OC(=N)C2C(=O)OC (configuration not stated)
 : -4, 1
#56 CCC1(CC)C(=N)N(C)C(=O)NC1=O
 : -4, 0
#57 Clc1cncc(NCC2CN(C3CC3)CCO2)n1 (configuration not stated)
 : 3, 8
#58 COCCCNC(=O)CN1C(=O)CSC(c2ccccc2OC)c2c(C(C)(C)C)nn(-c3cccc(C)c3C)c21 (configuration not stated)
 : -1, -4
#59 Cc1cccn2c(=O)c3cc(C(=O)N4CCC5(CC4)OCCO5)n(C)c3nc12
 : -2, 0
#60 COc1ccc(CC(=O)N2CCN(Cc3cccc(-c4noc(-c5cccc(C(F)(F)F)c5)n4)c3)CC2)cc1
 : 14, 25

Continuation:
#	SMILES	NPYLR7 agonist max-min	NPYLR7 agonist
61	COc1cccc(CC(=O)N2CCN(Cc3cccc(-c4noc(-c5cccnc5)n4)c3)CC2)c1	1	3
62	COc1ccc(OC)c2sc(N(CCN3CCOCC3)C(=O)Cc3ccc(F)cc3)nc12	2	9
63	COCc1c(C(=O)N2CCN(C)C3(CCN(C)CC3)C2)noc1C	3	3
64	COc1cc(C(O)CN)ccc1O (configuration not stated)	-36	4
65	O=C(CCCl)Nc1ccc2[nH]cc(CCN3CCOCC3)c2c1	2	15

Assay outcomes as filed in PubChem.

A portion of the library; count on the stated rates, not on these rows.
